# Kir21 block: blocks the mouse Kir2.1 inward-rectifier potassium channel; HEK293-Kir2.1, FluxOR thallium flux fluorescence; stronger effect = lower value; B-score at 10 µM; hit rate 0.85% among 310,000;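 active = fluorescence ratio B-score at or below minus 3 SD of library scores, with starting-brightness B-score within 2 SD, cut at about -4.2 in these data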;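 note: channel flux triggered by added potassium and thallium sulfate stimulus; B-score of peak minus minimum fluorescence over baseline after thallium stimulus; more negative B-score means stronger Kir2.1 block with less thallium influx; some compounds called inactive have numbers as strong as hits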
# Target sequence (P35561 whole entry, looked up): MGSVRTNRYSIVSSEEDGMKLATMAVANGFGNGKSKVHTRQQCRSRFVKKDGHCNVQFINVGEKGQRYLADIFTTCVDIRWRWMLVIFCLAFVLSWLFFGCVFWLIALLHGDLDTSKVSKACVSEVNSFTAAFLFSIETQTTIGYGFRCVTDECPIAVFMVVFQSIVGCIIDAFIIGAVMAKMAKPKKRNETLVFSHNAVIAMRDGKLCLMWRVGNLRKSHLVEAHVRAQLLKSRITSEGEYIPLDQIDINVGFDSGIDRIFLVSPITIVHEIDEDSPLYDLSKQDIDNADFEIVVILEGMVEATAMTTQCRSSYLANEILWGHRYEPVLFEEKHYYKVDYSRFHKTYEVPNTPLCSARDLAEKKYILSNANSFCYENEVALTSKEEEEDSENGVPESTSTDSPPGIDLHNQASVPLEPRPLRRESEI
# * marks the source's active call; other numbers are inactive results; & = joins results of further samples. The list is partial, and most or all hits are left out here.
SMILES	Kir21 block
COc1ccc(NC(=O)CN(C)S(=O)(=O)c2ccccc2)c([N+](=O)[O-])c1	1
O=C(NNC(=S)Nc1ccccc1)c1cccc(Br)c1	0.93
O=C(c1ccc2c(=O)n3c(nc2c1)CCCCC3)N1CCCCC1	-0.23
CCCCNS(=O)(=O)c1ccc2nc(-c3cccnc3)cc(C(=O)NC(C)C)c2c1	1.6
Cc1cccc(NC(=O)CCn2c(=O)oc3ccccc32)c1	0.31
CCN(CC)S(=O)(=O)c1ccc(/C=C/C(=O)OCC(=O)N(C(C)C)C(C)C)cc1	0.01
Cc1ccc2cc(COC(=O)c3ccncc3)c(=O)[nH]c2c1	0.02
Cc1ccccc1N(CC(=O)NCCc1ccccc1)C(=O)CCC(=O)Nc1ccccn1	-1.1
CC(=O)n1cc([C@@H]2C=C(C(=O)N3CCOCC3)O[C@H](OCCCCO)C2)c2ccccc21	0.25
Cc1cc(-c2cccnc2)c(C#N)c(SCC#N)n1	0.7
COc1ccc(CN(C)C(=O)c2cc(S(=O)(=O)N3CCCCCC3)ccc2OC)cc1OC	-1.6
Cc1cc2cc(C)c3nnc(SCC(=O)Nc4ccc(S(=O)(=O)N5CCCCC5C)cc4)n3c2cc1C (stereo not drawn)	-0.35
Cc1noc(NS(=O)(=O)c2ccc(NC(=O)C(CC(C)C)N3C(=O)c4ccccc4C3=O)cc2)c1C (stereo not drawn)	0.39
C=CCNC(=S)Nc1ccc(OC)c(S(=O)(=O)N2CCOCC2)c1	-1.2
Cc1ccccc1NC(=S)NC1CCN(Cc2ccccc2)CC1	-2.7
CC(=O)Nc1ccc(C2NC(=O)c3ccccc3O2)cc1 (stereo not drawn)	-0.38
O=C(NNc1cccc(Cl)n1)Nc1ccccc1	-0.5
Cc1cc(C)cc(NS(=O)(=O)c2ccc3[nH]cc(C(=O)N4CCc5ccccc54)c(=O)c3c2)c1	0.78
CC(=O)c1ccc(NC(=O)Cc2cccs2)cc1	0.16
O=C(Nc1ccc(-c2cnco2)cc1)c1ccc(F)cc1F	0.96

# More results.
SMILES	Kir21 block
Cc1nc(C)n(CC(=O)N2CCCC(C(=O)c3cccc4ccccc34)C2)n1 (stereo not drawn)	0.39
Cn1c(CNC(=O)CCNC(=O)c2cccc(Cl)c2)cc(=O)n(C)c1=O	1.7
CC1(C)CC(=O)C2=C(C1)Nc1cc3c(cc1C2c1ccc2c(c1)OCO2)OCO3 (stereo not drawn)	-0.56
O=C(COC(=O)C1CCC1)Nc1ccc(Oc2ccccc2)cc1	-0.3
COc1ccc(C(=O)Nc2cccc(-c3ccc4nncn4n3)c2)cc1OC	-2.9
Cc1[nH]ccc(=O)c1Oc1ncc(C(F)(F)F)cc1Cl	-1.1
CCOC(=O)c1cnc(SCc2nc(N)nc(Nc3ccc(C)cc3)n2)nc1N	-1.2
Oc1ccccc1C(Nc1nccs1)c1ccc2cccnc2c1O (stereo not drawn)	-0.17
COc1ccc2nc(NC(=O)CSc3nccc(C)n3)sc2c1	-0.13
O=C(CSc1ccc2ccccc2n1)Nc1nsc(-c2ccc(Cl)cc2)n1	-0.15
CCCCn1c(C)csc1=Nc1cccnc1	-0.85
O=c1cc(O)nc[nH]1	-0.63
CSCCC(NC(=O)c1ccco1)C(=O)N1CCCCCCC1 (stereo not drawn)	0
CC(=O)N1CCN(c2ccc(NC(=O)c3cc4ccccc4o3)cc2)CC1	0
Cc1cc(C)c(NC(=O)C2CCCN(S(=O)(=O)c3c(C)noc3/C=C/N(C)C)C2)c(C)c1 (stereo not drawn)	2.1
CCOc1ccc(C(=O)CCC(=O)NC2=NCCS2)cc1	0.82
CC(C)(C)c1ccc(-c2noc(CCC(=O)NCC3CCCO3)n2)cc1 (stereo not drawn)	1.1
COc1ccc(OC)c2c1sc(=NC(=O)C1CCCCC1)n2C	0.31
O=C(O)CCN1C(=O)/C(=C\c2ccncc2)SC1=S	-0.3
CCc1ccc(NC(=O)Nc2ccncc2)cc1	0

# Other entries.
SMILES	Kir21 block
CCCCNC(=O)C1CCN(Cc2ccc(OCc3ccccc3)cc2)CC1	-0.05
CCOc1ccc(-c2cc(CCCC(=O)NCCc3ccc(OC)c(OC)c3OC)no2)cc1	2.1
O=C(Nc1cnc2ccccc2c1)N1CCCCC1	0.07
CN(C)c1ccnc(Oc2ccc(F)cc2)c1C#N	0.01
Cc1ccc(C)c(N2N=C(C(=O)N(CC(C)C)c3c(N)n(Cc4ccccc4)c(=O)[nH]c3=O)CCC2=O)c1	0.2
CCOC(=O)c1c(NC(=O)COc2ccccc2F)sc2c1CC(C)(C)NC2(C)C	1.4
O=C(O)c1ccccc1NC(=S)NC(NC(=O)c1ccccc1[N+](=O)[O-])C(Cl)(Cl)Cl (stereo not drawn)	0.07
CCOc1ccc(N2CC(C(=O)NCc3ccccc3)CC2=O)cc1 (stereo not drawn)	-0.04
O=C(NC(=S)NC1CCS(=O)(=O)C1)c1cccc([N+](=O)[O-])c1 (stereo not drawn)	1.1
CCOC(=O)N1CCC(N(CCOC)C(=S)Nc2cccc(SC)c2)CC1	1.8
Cc1nn(C)cc1/C=N\NC(=O)c1ccc(Cn2cc(Cl)cn2)cc1	2.9
CCN(C(=O)COC(=O)C1CCN(S(=O)(=O)c2ccc3c(c2)OCCO3)CC1)C1CCS(=O)(=O)C1 (stereo not drawn)	1
Nc1c(Cl)cc(-c2csc(N3CCCC3c3nc4cc(Cl)c(N5CCCCC5)cc4n3CCOCCO)n2)cc1Cl (stereo not drawn)	0.8
COC(=O)c1ccc(C2/C(=C(/O)c3ccc4c(c3)CC(C)O4)C(=O)C(=O)N2CCN2CCOCC2)cc1 (stereo not drawn)	0.58
Cc1nc2cc(C(=O)NCc3cccnc3)ccc2n1-c1ccc(F)cc1F	0.47
Cn1c(COc2ccccc2)nnc1SCC(=O)c1cccc([N+](=O)[O-])c1	-0.15
Cc1cc(C)cc(OCc2ccc(C(=O)NC3CCOC3=O)o2)c1 (stereo not drawn)	0.08
Cc1csc(NC(=O)c2cc(C)oc2C)n1	-0.17
COc1ccc(-c2nnc(SC(C)C(=O)Nc3nccs3)n2Cc2ccccc2)cc1OC (stereo not drawn)	-0.38
CCc1ccccc1OCC(=O)OCC(=O)N1CC(=O)Nc2ccccc21	0.04

# A different layout for some results above:
Cn1c(COc2ccccc2)nnc1SCC(=O)c1cccc([N+](=O)[O-])c1
  Kir21 block = -0.15

Cc1cc(C)cc(OCc2ccc(C(=O)NC3CCOC3=O)o2)c1 (stereo not drawn)
  Kir21 block = 0.08

# (more compounds)
SMILES	Kir21 block
CCC(C)NC(=O)Cn1cccc1C(=O)c1ccccc1 (stereo not drawn)	0.22
COc1cc(CNC(C)c2ccccc2)cc(Br)c1OCc1ccc(F)cc1 (stereo not drawn)	0.61
CCCC(=O)N(c1ccccc1)C1C=CS(=O)(=O)C1 (stereo not drawn)	-0.05
Fc1ccc(Nc2nc(-c3ccncc3)cs2)cc1	-0.62
O=C(O)C1CCCCC1C(=O)N1CCCC1 (stereo not drawn)	0.58
CC(=O)c1cc2c(s1)-c1cc(F)ccc1OC2	1
COC(=O)c1ccc2c(=O)n(CCCCCC(=O)N3CCN(c4ccc(F)cc4)CC3)c(=O)[nH]c2c1	-0.46
CC(C)CC(c1nnnn1C1CCCC1)N1CCC(C(N)=O)CC1 (stereo not drawn)	-0.44
O/N=C/c1ccc(OCC(O)COc2ccc(/C=N/O)cc2)cc1	-0.43
O=C(Nc1ccnn1C1CCN(Cc2cccc(O)c2)CC1)C1CCCC1	-0.71
CCN(CC)CCCn1c2c(c(SCC(=O)Nc3cccc(C(C)=O)c3)nc1=O)CCC2	1.3
CC(C)C(C(=O)OCC(=O)c1cccc([N+](=O)[O-])c1)N1C(=O)[C@@H]2[C@H]3CC[C@H](C3)[C@@H]2C1=O (stereo partly drawn)	0.71
CC(C)Cc1nnc(NC(=O)CCc2c[nH]c3ccccc23)s1	-0.15
CCCCC(CC)Cn1c(O)c(/C=C2\C=NN=C2c2ccccc2)sc1=S (stereo not drawn)	2.1
CC(C)=CC(=O)Nc1ccccc1C(N)=O	0.02
Cc1ccccc1NNC(N)=S	-1.6
CN1OC2C(=O)N(c3ccccc3)C(=O)C2C1c1ccc(F)cc1 (stereo not drawn)	-0.49
COCCNC(=O)/C(C#N)=C/c1ccc2c(c1)OCO2	-0.42
CC1(C)CC(NC(=O)Nc2ccc([N+](=O)[O-])cc2)CC(C)(C)N1	0.85
Fc1cccc(F)c1/C=N/NC(=S)Nc1cccnc1	-1.4

# Next section.
SMILES	Kir21 block
O=C(O)/C=C/c1ccc(S(=O)(=O)N2CCCCCC2)cc1	-0.48
Cc1ccc2c(C(=O)CN3CCCCC3CCO)c(C)[nH]c2c1 (stereo not drawn)	-0.91
CO/N=C/NC(=O)N1OC[C@@H]2COc3ccc4ccccc4c3[C@@H]21	-0.59
O=C(Cn1c(N2CCN(C/C=C/c3ccccc3)CC2)nc2ccccc21)c1ccccc1	-0.01
Cc1ccc(NC(=O)CNCc2ccccn2)cc1S(=O)(=O)N(C)C	0.4
O=C(NCCc1ccc2c(c1)OCCO2)c1cc(F)cc(F)c1	0.96
CCN(CC(=O)N1CCCC1)S(=O)(=O)c1ccc(F)cc1	0.01
Cc1cc(C)cc(NC(=O)CCN2CC(C)OC(C)C2)c1 (stereo not drawn)	0.52
CC(=O)C1=C(C)NC(=O)NC1c1cc(Br)ccc1OCC(N)=O (stereo not drawn)	-0.4
COc1ccccc1-n1ccn(CC(=O)Nc2ccc(C)cc2Cl)c(=O)c1=O	0.47
O=C(CSc1nc(=O)n(CCN2CCOCC2)c2c1CCCC2)Nc1ccc([N+](=O)[O-])cc1	0.01
c1ccc(-c2onc3cc4c(cc23)OCCO4)cc1	-0.43
COc1cc(Cc2cnc(N)nc2N)cc(OC)c1OC	-0.37&0.52
Nc1nc(SCC(=O)c2ccc(F)cc2)n[nH]1	3
CCOc1ccccc1NC(=O)CSc1nnc(CNC(=O)COc2ccc(Cl)cc2)o1	-0.03
CCC(CC)C1=NN2C(=N)/C(=C/c3ccc(OC(=O)c4ccco4)cc3)C(=O)N=C2S1	-0.02
Cc1ccc(OCCn2cc(Br)c(=O)[nH]c2=O)cc1	-0.7
O=C(NCn1cnccc1=O)c1ccccc1	0.16
Cc1ccc(C)c(NC(=O)CN2C(=O)c3ccccc3C2=O)c1	0.57
COc1cccc(CCNC(=O)CCCC(=O)c2ccccc2)c1	-0.7

# The results go on:
SMILES	Kir21 block
Cc1ccccc1N=C1SCC(=O)N1Cc1ccccc1	-1.2
CC(/C=C1\SC(=S)N(NC(=O)c2cccc(O)c2)C1=O)=C\c1ccccc1	-0.16
CCOC(=O)N1CCN(C(=O)c2ccc(CS(=O)(=O)c3c(Cl)cccc3Cl)o2)CC1	0.29
CCCOc1ccccc1Nc1nnc(C)c(=O)[nH]1	-0.39
CC(=O)N1CCCc2cc(S(=O)(=O)N3CCCC(C(=O)Nc4cc(C)ccc4C)C3)ccc21 (stereo not drawn)	0.48
O=C(NC1CC1)C1=C[C@@H](c2ccccc2)C[C@@H](OCCCCO)O1	2.1
CCCOc1ccc(C(=O)Nc2ccc(C)cc2[N+](=O)[O-])cc1	0.68
COc1ccc(C)cc1-n1nnnc1SCC(=O)N1CCC(C(=O)Nc2nccs2)CC1	-1.3
CCC(O)(CCN1CCCCC1)c1ccccc1 (stereo not drawn)	-1.2
O=C(c1ccccc1-c1nc(-c2ccccc2)no1)N1CCOCC1	-0.27
Cn1nnnc1SCC(=O)N(C1CCCCC1)C1CCS(=O)(=O)C1 (stereo not drawn)	-1.2
O=C(O)/C=C/c1cccc(NS(=O)(=O)c2ccccc2)c1	1.9
CCN(C1CCCCC1)S(=O)(=O)c1c(C)n(C)c(=O)n(C)c1=O	-1.9
Oc1cccc(/C=N/Nc2ccc(Cl)nn2)c1	-0.26
Cc1occc1-c1nc(-c2ccccn2)no1	0.56
COc1ccc(CN(C)Cc2c(O)ccc3ccccc23)cc1	-1.4
C[C@H]1CCC[C@@]2(O[C@@H](CCO)C[C@H](O)[C@H]2O)O1	-2
CC1(C)CC(=O)C2=C(C1)N(Cc1ccco1)C(=O)C2(O)C(F)(F)F (stereo not drawn)	-1.7
CCCOc1ccc(-c2cnc(SCC(N)=O)nc2N)cc1	-0.01
Clc1ccc2c(NCc3cccs3)ncnc2c1	1.1

# 6 records drawn at random from those above:
SMILES	Kir21 block
COc1ccc(CN(C)Cc2c(O)ccc3ccccc23)cc1	-1.4
CCN(C1CCCCC1)S(=O)(=O)c1c(C)n(C)c(=O)n(C)c1=O	-1.9
CCCOc1ccccc1Nc1nnc(C)c(=O)[nH]1	-0.39
Cc1ccccc1N=C1SCC(=O)N1Cc1ccccc1	-1.2
Clc1ccc2c(NCc3cccs3)ncnc2c1	1.1
CCCOc1ccc(-c2cnc(SCC(N)=O)nc2N)cc1	-0.01

# (continued)
SMILES	Kir21 block
CCC(=O)Nc1nc(CC(=O)Nc2ccccc2)cs1	-2.1
CCN(CCCNC(=O)CSc1cc(=O)n(C)c2cc(Cl)ccc12)Cc1ccccc1	-3.5
Cc1ccc(C(=O)NCc2ccncc2)cc1S(=O)(=O)Nc1cccc(C)c1C	0.99
O=C(N/N=C/c1ccc(N2CCOCC2)cc1)C1CC1	0.56
COc1ccc(N2C(=O)C3C4C=CC(C5CC45)C3C2=O)c([N+](=O)[O-])c1 (stereo not drawn)	-0.01
COc1cccc(-c2onc3ccc(C4(C)OCCO4)cc23)c1	0.14
COc1cc2c(cc1OC)C(c1cccs1)NCC2 (stereo not drawn)	0.54
O=C(NNC(=O)c1ccccc1-n1cccc1)c1cccc(Cl)c1	1.4
